Screening data: PubChem BioAssay, Broad Institute
PD-1 reversal – activators reversing PD-1 mediated T-cell inhibition; primary human CD4 T cells, PD-L1 beads, CellTiter-Glo 96 h; activation, % (concentration not given with the values); 29,000 tested, under 10 active; AID 2316;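 active means replicate mean of 50% or more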;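 further: 0% = median vehicle wells and 100% = positive control; 100 nL library stock added to about 50 µL; numbers are from one replicate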
YB-1 expression – YB-1 expression inhibition. U2OS, qRT-PCR YB-1 vs CDIP delta delta Cp, 16 h; hits give high values; zero = DMSO, each unit about twofold. delta delta Cp (YB-1 minus CDIP) (concentration not given with the values). hit rate 0.37% among 30,000;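 active means delta delta Cp rounded down to an integer at or above 3, about 3 SD of DMSO wells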;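 further: higher means less YB-1 transcript or more CDIP transcript relative to DMSO; stock transfer was 100 nL into about 100 µL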
MITF inh – MITF inhibition | TRPM1 promoter luciferase, luminescence, 24 h | inhibition, % (concentration not given with the values) | hit rate 0.28% among 37,000;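 active means most replicates at 85% or more, or half of them and the mean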;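 further: human melanocyte line stably carrying TRPM1 promoter luciferase reporter; 0% = vehicle wells and 100% = a positive control; the first replicate is given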
Shh pathway inh – blocks Sonic Hedgehog signaling; Shh-LIGHT2 Gli-luciferase reporter, 30 h; inhibition, % (no concentration beside the values); hit rate 2.1% among 22,000; AID 2313;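 active means replicate mean of 65% or more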;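 further: pathway switched on by Shh-conditioned medium diluted 1 in 25 in low serum; 100 nL library stock added to about 40 µL; 0% = median of neutral wells and 100% = positive control level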
* = called active by the depositor; / = no result given. Some of the compounds tested, so the mix of outcomes need not match the whole.

SMILES | PD-1 reversal | YB-1 expression | MITF inh | Shh pathway inh
C[C@@H]1CN([C@@H](C)CO)C(=O)Cc2cc(NS(=O)(=O)c3cccs3)ccc2O[C@@H]1CN(C)Cc1ccncc1 | -0.8 | -0.11 | -8 | -3
CCOC(=O)CSc1nc(N)c2c3c(sc2n1)COC(C)(C)C3 | -2.0 | / | -20 | /
O=C(COc1ccc([N+](=O)[O-])cc1)Nc1ccc2oc(-c3ccc(Br)cc3)nc2c1 | -0.8 | / | -39 | /
COC(=O)NC(Nc1ccccc1C(F)(F)F)C(=O)c1ccccc1 (stereo not drawn) | 0.1 | -0.0033 | 3 | 0
Cc1noc(C)c1NC(=O)N(C)C[C@@H]1Oc2c(NC(=O)Nc3ccc4c(c3)OCO4)cccc2C(=O)N([C@@H](C)CO)C[C@@H]1C | / | 0.14 | 3 | -7
C[C@H](CO)N1C[C@H](C)[C@H](CN(C)Cc2ccc(Oc3ccccc3)cc2)Oc2ccc(NC(=O)Cc3cn(C)c4ccccc34)cc2CC1=O | -0.6 | -0.08 | 11 | -5
C[C@@H]1CCCCO[C@@H](CN(C)C)[C@@H](C)CN([C@H](C)CO)C(=O)c2cc(NC(=O)c3ccncc3)ccc2O1 | / | -0.12 | -1 | -1
COc1ccccc1CC(=O)Nc1ccc(-c2noc(-c3ccccc3C)n2)cc1 | 1.9 | / | -15 | /
COc1cc(C)c(Cl)cc1S(=O)(=O)NCc1ccccn1 | 1.4 | / | -12 | /
O=C(C[n+]1ccccc1)Nc1ccccc1C(=O)O | -0.1 | 0.03 | -1 | 2
C[C@@H]1CN([C@H](C)CO)C(=O)c2cc(NC(=O)Nc3cccc4ccccc34)ccc2O[C@H]1CN(C)Cc1ccc(C(=O)Nc2ccccc2N)cc1 | -1.6 | 0.11 | 21 | /
COc1ccc(NC(=O)Nc2ccc3c(c2)CC(=O)N([C@H](C)CO)C[C@H](C)[C@H](CN(C)S(=O)(=O)c2ccc(F)cc2)O3)cc1 | / | 0.051 | 25 | -48
CCOC(=O)c1c(NC(C)=O)sc2c1CCCNC2=O | -1.3 | -0.88 | -5 | 12
Cc1noc(C)c1NC(=O)N(C)C[C@H]1Oc2ccc(N(C)C)cc2C(=O)N([C@H](C)CO)C[C@H]1C | 1.6 | 0.072 | -11 | /
Cn1c(=O)[nH]c(=O)c2c1ncn2CCNCc1ccco1 | 2.3 | / | -9 | /
Cc1c(Br)c([N+](=O)[O-])nn1C(C)C(=O)NCc1cccnc1 (stereo not drawn) | 4.4 | / | -18 | /
C[C@H](CO)N1C[C@H](C)[C@H](CN(C)C(=O)Nc2cccc3ccccc23)Oc2ccc(NC(=O)C3CCCCC3)cc2C1=O | -2.6 | 0.088 | 11 | /
COc1ccc(S(=O)(=O)N(C)C[C@H]2OCCCC[C@@H](C)Oc3ccc(NC(=O)NC4CCCCC4)cc3C(=O)N([C@H](C)CO)C[C@@H]2C)cc1 | 2.5 | 0.51 | 13 | 18
O=C1c2ccccc2C(=O)C1c1cc(=O)[nH]c2c1ccc1ccccc12 | 0.3 | 0.49 | 10 | -12
C[C@H](CO)N1C[C@H](C)[C@@H](CN(C)Cc2ccc(C(=O)O)cc2)Oc2c(NC(=O)C3CC3)cccc2C1=O | / | 0.35 | -4 | -114
CCOC(=O)c1c(NC(=O)CSc2nc3c(cc2C#N)CCCC3)sc2c1CCCC2 | 0.7 | / | -69 | /
CCOc1ccccc1NC(=O)c1c(NC(=O)CN2CCOCC2)sc2c1CCC2 | -2.9 | / | 12 | /
COc1ccc(NC(=O)CSc2nnc(-c3cccs3)n2-c2ccc(F)cc2)cc1 | -2.0 | / | -2 | /
Cc1cc(OCc2nc3ccccc3s2)ccc1NC(=O)c1cccc(F)c1 | -6.9 | / | -17 | /
Cc1ccc(S(=O)(=O)N(C)C[C@H]2OCCCC[C@@H](C)Oc3ccc(N(C)C)cc3C(=O)N([C@H](C)CO)C[C@@H]2C)cc1 | / | -0.15 | -2 | -12

More records.
SMILES | PD-1 reversal | YB-1 expression | MITF inh | Shh pathway inh
Cc1nc(-c2cc(C#N)c(SCCC(=O)OC(C)(C)C)nc2C)cs1 | 0.6 | -0.34 | -52 | -24
C[C@H]1CN([C@@H](C)CO)C(=O)c2cccc(NS(=O)(=O)c3ccc(F)cc3)c2O[C@H]1CN(C)C(=O)Nc1ccc(C(F)(F)F)cc1 | -2.2 | 0.74 | 8 | -45
C[C@H](CO)N1C[C@H](C)[C@@H](CN(C)C(=O)Nc2ccc3c(c2)OCO3)Oc2c(NC(=O)c3nc4ccccc4s3)cccc2C1=O | 0.4 | 0.14 | 2 | 3
FC(F)(F)c1cc(-c2ccc3ccccc3c2)no1 | 0.4 | -0.2 | -4 | -33
CNC[C@H]1Oc2ccc(NC(=O)CCCN(C)C)cc2C(=O)N([C@@H](C)CO)C[C@@H]1C | / | 0.21 | 1 | -40
COc1ccccc1-c1noc(CCC(=O)Nc2ccccc2C)n1 | -0.2 | / | 9 | /
Cc1c(NC(=O)COc2ccc(C(C)(C)C)cc2)cccc1C(=O)O | 0.6 | / | -79 | /
COc1ccc(OCC(=O)Nc2ccc3oc(-c4ccc(C)cc4C)nc3c2)cc1 | -0.6 | / | 6 | /
COc1cc(C2c3cc(O)c(OC)cc3CC(CO)C2CO[C@@H]2O[C@H](CO)[C@@H](O)[C@H](O)[C@H]2O)ccc1O (stereo partly drawn) | 1.3 | -0.22 | 3 | -24
COC(=O)c1cc(C(=O)NCc2ccccn2)cc([N+](=O)[O-])c1 | 0.6 | / | 7 | /
Cc1ccnc(SCC(=O)Nc2ccc(Br)cc2F)n1 | -0.1 | / | -17 | /
Cc1ccc(NC(=O)c2ccco2)c(NC(=O)CN2C(=O)c3ccccc3C2=O)c1 | 0.1 | / | -6 | /
Cc1ccc(SC(=O)c2c(C)noc2COc2ccccc2)cc1 | 2.2 | 0.7 | 5 | 27
CCOC(=O)C1=C(CSc2ccc(Cl)cc2)NC(=O)NC1c1cc(C)ccc1C (stereo not drawn) | 0.7 | -0.026 | -30 | 48
C/C=C(\C)C(=O)OC(/C=C/C(O)C(C)O)C1C=CC(=O)O1 (stereo not drawn) | -0.3 | 0.034 | -20 | -27
C[C@@H]1CN([C@H](C)CO)C(=O)c2cc(NC(=O)Cc3ccccc3)ccc2O[C@@H]1CN(C)Cc1ccc(C(=O)O)cc1 | 0.3 | -0.38 | -2 | -30
COc1ccc(S(=O)(=O)Nc2cccc3c2O[C@H](CN(C)C(=O)Nc2ccc4c(c2)OCO4)[C@@H](C)CN([C@@H](C)CO)C3=O)cc1 | / | -0.8 | -4 | -24
Cc1noc(C)c1NC(=O)Nc1ccc2c(c1)C(=O)N([C@H](C)CO)C[C@H](C)[C@H](CN(C)Cc1ccc(C(F)(F)F)cc1)OCCCC[C@@H](C)O2 | / | -0.18 | -10 | 2
COc1ccc(-c2c(O)c3c(OC)c4c(cc3oc2=O)OC(C)(C)C=C4)cc1 | / | -0.0065 | -5 | -11
Cc1noc(C)c1S(=O)(=O)N(C)C[C@H]1Oc2c(NC(=O)c3nc4ccccc4s3)cccc2C(=O)N([C@@H](C)CO)C[C@H]1C | 0.4 | -0.57 | 17 | 27
CCCCN1C(=O)NC(C(F)(F)F)(C(F)(F)F)C2=C1CC(C)(C)CC2=O | -0.5 | -0.85 | -20 | -56
CNC[C@@H]1Oc2ccc(NC(=O)CCN3CCOCC3)cc2CC(=O)N([C@@H](C)CO)C[C@@H]1C | / | 0.19 | -21 | -19
C[C@H]1CN([C@@H](C)CO)C(=O)Cc2cc(NC(=O)CCC(F)(F)F)ccc2O[C@@H]1CN(C)C(=O)Nc1ccc2c(c1)OCO2 | 0.8 | 0.22 | 0 | -7
CS(=O)(=O)N1CCN(C(=S)NCc2ccco2)CC1 | 1.5 | / | -8 | /
C[C@H]1CN([C@@H](C)CO)C(=O)c2cccc(NC(=O)C3CC3)c2O[C@@H]1CN(C)S(=O)(=O)c1cccs1 | -1.0 | -0.31 | -5 | 0

Further entries follow.
SMILES | PD-1 reversal | YB-1 expression | MITF inh | Shh pathway inh
C[C@H]1CN([C@@H](C)CO)C(=O)c2cc(NC(=O)Cc3ccccc3)ccc2O[C@H]1CN(C)S(=O)(=O)c1ccccc1 | -2.4 | -0.44 | -6 | 33
Oc1c(I)cc(Cl)c2cccnc12 | -0.4 | -0.011 | 17 | 4
C[C@@H]1CN([C@H](C)CO)C(=O)c2cccc(NC(=O)c3ccncc3)c2O[C@H]1CN(C)S(=O)(=O)c1cn(C)cn1 | 1.7 | 0.11 | 3 | -30
Cc1cccc(OCC(=O)Nc2ccccc2CO)c1C | -1.6 | / | -19 | /
C[C@H]1CN([C@@H](C)CO)C(=O)Cc2cc(NS(C)(=O)=O)ccc2O[C@@H]1CN(C)C(=O)Nc1ccc(C(F)(F)F)cc1 | -0.7 | 0.028 | -2 | -7
O=C(O)C1C2CCC(O2)C1C(=O)Nc1ccc(S(=O)(=O)N2CCc3ccccc32)cc1 (stereo not drawn) | 0.0 | / | 21 | /
O=C(c1cccs1)N1c2ccccc2Sc2ccccc21 | -0.6 | 0.34 | 17 | /
Cc1ccsc1C1C(C(=O)c2ccco2)C(=O)C(=O)N1Cc1ccco1 (stereo not drawn) | 3.0 | / | 5 | /
C[C@@H]1O[C@@H](Oc2ccc(-c3coc4cc(O[C@@H]5O[C@@H](C)[C@H](O)[C@@H](O)[C@H]5O)cc(O)c4c3=O)cc2)[C@H](O)[C@H](O)[C@H]1O | 1.8 | -0.47 | -33 | -30
CC(C)NC(=O)Nc1ccc2c(c1)C(=O)N([C@@H](C)CO)C[C@@H](C)[C@H](CN(C)S(C)(=O)=O)O2 | / | 0.36 | -1 | -32
C[C@H]1CN([C@@H](C)CO)C(=O)c2cccc(NC(=O)Nc3ccc(C(F)(F)F)cc3)c2O[C@@H]1CN(C)Cc1ccc(Oc2ccccc2)cc1 | / | -0.5 | 21 | -31
COC(=O)c1cc(NC(=O)CN(c2ccccc2F)S(C)(=O)=O)ccc1Cl | 0.2 | / | -3 | /
Cc1noc(C)c1S(=O)(=O)Nc1ccc2c(c1)CC(=O)N([C@H](C)CO)C[C@H](C)[C@H](CN(C)CC1CCCCC1)O2 | -1.8 | -0.28 | -6 | -10
COc1ccc(Br)cc1CNCCN1CCOCC1 | 1.4 | / | 0 | /
CC(C)NC(=O)Nc1cccc2c1O[C@H](CN(C)S(=O)(=O)c1ccc(Cl)cc1)[C@H](C)CN([C@H](C)CO)C2=O | / | 0.17 | 5 | 26
C[C@H]1CN([C@@H](C)CO)C(=O)c2cc(NC(=O)C3CC3)ccc2O[C@@H]1CN(C)C(=O)NC1CCCCC1 | 0.7 | -0.063 | -7 | /
C[C@@H]1CN([C@@H](C)CO)C(=O)c2cc(NC(=O)Nc3ccc4c(c3)OCO4)ccc2O[C@@H]1CN(C)Cc1ccncc1 | 1.9 | 0.058 | -4 | /
CC(CNc1ccccc1)C(=Nc1ccccc1)Nc1ccccc1 (stereo not drawn) | -28 | -0.051 | -8 | -21
C[C@H]1CN([C@@H](C)CO)C(=O)c2cccc(NC(=O)c3nc4ccccc4s3)c2O[C@@H]1CN(C)S(=O)(=O)c1cccs1 | / | 0.2 | 4 | 23
O=C(Nc1cccc(OCC(=O)N2CCOCC2)c1)C1CCCCC1 | -0.1 | / | -9 | /
Cc1noc(C)c1NC(=O)N(C)C[C@@H]1Oc2ccc(NC(=O)CCN3CCOCC3)cc2C(=O)N([C@@H](C)CO)C[C@H]1C | 0.4 | -0.029 | 2 | -14
C[C@@H]1CN([C@@H](C)CO)C(=O)Cc2cc(NC(=O)c3ccncc3)ccc2O[C@@H]1CN(C)S(C)(=O)=O | 0.9 | -0.0006 | -9 | 4
Cc1nnc(SCC(=O)Nc2ccc(Br)cc2F)s1 | 2.1 | / | -21 | /

Among those listed so far, these contain a thiophene ring, fused or not:
SMILES | PD-1 reversal | YB-1 expression | MITF inh | Shh pathway inh
C[C@@H]1CN([C@@H](C)CO)C(=O)Cc2cc(NS(=O)(=O)c3cccs3)ccc2O[C@@H]1CN(C)Cc1ccncc1 | -0.8 | -0.11 | -8 | -3
CCOC(=O)CSc1nc(N)c2c3c(sc2n1)COC(C)(C)C3 | -2.0 | / | -20 | /
CCOC(=O)c1c(NC(C)=O)sc2c1CCCNC2=O | -1.3 | -0.88 | -5 | 12
CCOC(=O)c1c(NC(=O)CSc2nc3c(cc2C#N)CCCC3)sc2c1CCCC2 | 0.7 | / | -69 | /
CCOc1ccccc1NC(=O)c1c(NC(=O)CN2CCOCC2)sc2c1CCC2 | -2.9 | / | 12 | /
COc1ccc(NC(=O)CSc2nnc(-c3cccs3)n2-c2ccc(F)cc2)cc1 | -2.0 | / | -2 | /
C[C@H]1CN([C@@H](C)CO)C(=O)c2cccc(NC(=O)C3CC3)c2O[C@@H]1CN(C)S(=O)(=O)c1cccs1 | -1.0 | -0.31 | -5 | 0
O=C(c1cccs1)N1c2ccccc2Sc2ccccc21 | -0.6 | 0.34 | 17 | /
Cc1ccsc1C1C(C(=O)c2ccco2)C(=O)C(=O)N1Cc1ccco1 (stereo not drawn) | 3.0 | / | 5 | /
C[C@H]1CN([C@@H](C)CO)C(=O)c2cccc(NC(=O)c3nc4ccccc4s3)c2O[C@@H]1CN(C)S(=O)(=O)c1cccs1 | / | 0.2 | 4 | 23
